Assay outcomes as filed in PubChem.
2A StopGo: High Throughput Screening for Foot and Mouth Disease Virus Antivirals; 1.2% of 410,000 active; Potency, µM (doses to about 57.9 µM), for inactives: at the top dose signal change, negative = less light; AID 1159524, 2015; human cells with a luciferase reporter of 2A StopGo recoding; control for the full effect not named in the record; active = well fitted falling curve with a large enough effect; inconclusive = small, poorly fitted or top-dose-only effect; inactive = no such curve, though single readings can be large or run the other way; tested in HEK293T cells; note: % is set by controls: 0 for no effect and ±100 for the full control effect; nearly all actives have a fitted effect of over 45% in size; luciferase light after 4 h
NS1 function inh: qHTS Assay for Inhibitors of Influenza NS1 Protein Function; S. cerevisiae slowed by influenza A NS1, growth recovery by OD600; Potency, µM (highest dose often 46.1 µM), inactives show at the top dose activity, positive = more growth; 0.4% of 270,000 active; active means well fitted rising curve with a large enough effect; inconclusive means small, poorly fitted or top-dose-only effect; inactive means no such curve, though single readings can be large or run the other way; note: nearly all actives have a fitted effect of over 50% in size
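In this qHTS, NS1 from influenza A is expressed in budding yeast, where it slows growth. Cells are switched from glucose to 2% galactose medium (pH 6.0, -URA), treated with compound, and growth recovery is read at OD600.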
SARS PLpro yeast: qHTS of Yeast-based Assay for SARS-CoV PLP. S. cerevisiae expressing SARS-CoV PLpro, growth rescue; control for the full effect not named in the record. Potency, µM (doses to about 32.9 µM), without a hit: at the top dose activity, positive = growth rescue. 0.19% of 330,000 active; active means well fitted rising curve with a large enough effect; inconclusive means small, poorly fitted or top-dose-only effect; inactive means no such curve, though single readings can be large or run the other way; note: 0% is about no effect; nearly all actives have a fitted effect of over 55% in size; growth read by luminescence after 48 h
Cruzain Triton: qHTS Assay for Promiscuous and Specific Inhibitors of Cruzain (with detergent) | Cruzipain (Trypanosoma cruzi), P25779 | purified cruzain, Z-FR-AMC fluorescence, 0.01% Triton | Potency, µM, inactives show max response, negative = inhibition, hits mostly inhibitors | 0.43% of 200,000 active | AID 1478, 2009;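 note: plate controls were neutral wells for no effect and buffer without enzyme for full effect; nearly all actives have a fitted effect of over 40% in size; top concentration of the series not given in the record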
Target sequence (P25779 123-467 limits assumed): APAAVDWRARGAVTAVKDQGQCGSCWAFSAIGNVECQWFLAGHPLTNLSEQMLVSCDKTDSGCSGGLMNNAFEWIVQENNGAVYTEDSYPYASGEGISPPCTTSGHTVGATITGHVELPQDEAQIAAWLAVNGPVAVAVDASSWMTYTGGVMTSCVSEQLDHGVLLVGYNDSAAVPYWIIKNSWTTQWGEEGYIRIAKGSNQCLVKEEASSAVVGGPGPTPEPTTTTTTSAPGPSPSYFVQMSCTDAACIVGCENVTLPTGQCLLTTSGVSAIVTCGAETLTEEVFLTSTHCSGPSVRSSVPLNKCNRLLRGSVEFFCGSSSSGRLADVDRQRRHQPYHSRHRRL
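Enzyme 1.5 nM, Z-FR-AMC 2 uM, NaOAc 100 mM pH 5.5, DTT 5 mM, Triton X-100 0.01%; 15 min RT compound preincubation; kinetic ex360/em450, 60 s delta.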
Cruzain inh noDet: qHTS Assay for Promiscuous and Specific Inhibitors of Cruzain (without detergent); Cruzipain (Trypanosoma cruzi), P25779; 2.3% of 200,000 active; Potency, µM, for inactives: max response, negative = inhibition, hits mostly inhibitors; purified cruzain, Z-FR-AMC fluorescence, no detergent;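 note: plate controls were enzyme without inhibitor for no effect and buffer without enzyme for full effect; nearly all actives have a fitted effect of over 40% in size; top concentration of the series not given in the record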
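Purified cruzain at 1.5 nM, pre-incubated 15 min with compound at room temperature in 100 mM sodium acetate pH 5.5, 5 mM DTT, 0.00005% Triton X-100. Reaction started with 2 uM Z-FR-AMC; AMC fluorescence increase over 60 s gives rate.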
Marburg entry inh: qHTS for inhibitors of binding or entry into cells for Marburg Virus | Marburg virus pseudotyped entry inhibition, cell reporter; control for the full effect not named in the record; about a third of the inactives were read at about 46 µM | Potency, µM (titrated, usually from 37.8 µM), for the others: at the top dose activity change, negative = inhibition, hits mostly inhibitors | 1.8% of 300,000 active | AID 540276, 2011; active = well fitted inhibition curve with a large enough effect; inconclusive = small, poorly fitted or top-dose-only effect, or effect the other way; inactive = flat fitted curve, though single readings scatter; tested in HEK293 cells; about a fifth of its hits are not listed in these tables; note: % is set by controls: 0 for no effect and ±100 for the full control effect; luciferase read-out
RE007 growth inh: qHTS Assay for Inhibitors of the HIV-1 protein Vpr; S. pombe RE007 Vpr strain, BacTiter-Glo ATP luminescence, 24 h; control for the full effect not named in the record; Potency, µM (titrated, usually from 92.2 µM), for the others: top-dose activity change, negative = less growth; 0.21% of 360,000 active; active = well fitted falling curve with a large enough effect; inconclusive = small, poorly fitted or top-dose-only effect; inactive = no such curve, though single readings can be large or run the other way;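 note: % is set by controls: 0 for no effect and ±100 for the full control effect; nearly all actives have a fitted effect of over 50% in size; the assay follows cell death caused by Vpr and the record does not say whether a fall means rescue or toxicity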
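Fission yeast RE007 carrying one integrated HIV-1 vpr copy, seeded at OD 0.01 in PMG+AL medium with 23 nL pinned compound. Grown 24 h at 30 degrees; viability read by BacTiter-Glo luminescence after 5 min.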
Lassa entry inh: qHTS for Inhibitors of binding or entry into cells for Lassa Virus; AID 540256, 2011; 1.2% of 300,000 active; Potency, µM (top dose mostly 37.9 µM), inactives show at the top dose activity change, negative = inhibition, hits mostly inhibitors; Lassa virus pseudotype entry inhibition, cell reporter; control for the full effect not named in the record; active means well fitted inhibition curve with a large enough effect; inconclusive means small, poorly fitted or top-dose-only effect, or effect the other way; inactive means flat fitted curve, though single readings scatter; tested in HEK293 cells; note: % is set by controls: 0 for no effect and ±100 for the full control effect; nearly all actives have a fitted effect of over 50% in size; luciferase read-out
* = called active by the depositor; ? = inconclusive; / = no result given; & = joins results of further samples; [ ] = another dose, or the depositor's remark. Unless noted, calls come from the whole dose curve; as a rule, active = well fitted curve in the direction sought with a large enough effect; inconclusive = small, poorly fitted or top-dose-only effect, or another doubt; inactive = no such curve, though single readings can be large; an effect the other way counts as inactive or inconclusive. Potency is the fitted concentration of half-maximal effect.

(1) O=C(CN1CCCCC1)Nc1cccc(Br)c1
(2) CCOC(=O)c1c(C)n(Cc2ccccc2)c2ccc(OCC(O)Cn3nc(C)nc3C)cc12 (centres undefined)
(3) COc1ccc(/C=C/C(=O)NC(=S)NNC(=O)c2cc(OC)c(OC)c(OC)c2)cc1
(4) CCOC(=O)c1csc(NNC=O)n1
(5) CCOC(=O)C1CCCN(Cc2cn3c(-c4ccc(Br)cc4)nnc3s2)C1 (centres undefined)
(6) O=C(CSc1nnc(CNc2ccc(Cl)cc2)o1)Nc1nc2c(s1)CCCC2
entry no.,1,2,3,4,5,6
2A StopGo,0.1%,-22.6%,-13.5%,-2.1%,-20.3%,?
NS1 function inh,-3.8%,-76.6%,0.0%,11.5%,/,-14.7%
SARS PLpro yeast,2.4%,2.3%,0.9%,-3.2%,/,-0.7%
Cruzain Triton,7.9%,-9.3%,/,-3.8%,-1.6%,-9.6%
Cruzain inh noDet,0.4%,?,/,6.2%,11.9%,-0.9%
Marburg entry inh,4.9%,/,/,?,/,1.8%
RE007 growth inh,28.8%,7.8%,24.5%,-2.1%,/,-11.7%
Lassa entry inh,0.0%,/,/,0.5%,?,?

(7) Cc1cc(C)c(OCC(=O)Nc2ccccc2N2CCOCC2)c(C)c1
(8) C/C=C(/C)C(=O)O[C@@H]1[C@H](OC(C)=O)c2c(ccc3ccc(=O)oc23)OC1(C)C
(9) COc1ccc(NC(=O)CN2CCN(C3CCCCC3)C(=O)C2=O)cc1
(10) CN(CCNC(=O)CN1C(=O)CSc2ccc(S(=O)(=O)N3CCCC3)cc21)Cc1ccccc1
(11) Cc1ccc2c(=O)cc(C(=O)Nc3nc4ccc(Cl)cc4s3)oc2c1
(12) Cc1ccc(C)c(NC(CC(=O)c2ccccc2)C(=O)OCC(=O)c2cccs2)c1 (centres undefined)
entry no.,7,8,9,10,11,12
2A StopGo,-25.6%,-16.8%,-1.3%,-15.9%,-14.9%,14.3%
NS1 function inh,-19.3%,-34.9%,/,/,/,-10.0%
SARS PLpro yeast,3.6%,17.0%,/,0.6%,/,-6.4%
Cruzain Triton,-11.2%,-6.5%,5.7%,/,-2.8%,-3.9%
Cruzain inh noDet,-0.7%,4.3%,-5.1%,/,7.5%,1.3%
Marburg entry inh,26.7%,-19.6%,/,-28.8%,-0.1%[46.1 µM],26.2%
RE007 growth inh,13.6%,-10.6%,/,6.0%,/,?
Lassa entry inh,-17.0%,-9.4%,21.0%[46.1 µM],-1.6%,1.9%[46.1 µM],-4.5%

Reformatted: two of the compounds above.
12: Cc1ccc(C)c(NC(CC(=O)c2ccccc2)C(=O)OCC(=O)c2cccs2)c1 (centres undefined)
  2A StopGo: 14.3%	NS1 function inh: -10.0%	SARS PLpro yeast: -6.4%	Cruzain Triton: -3.9%	Cruzain inh noDet: 1.3%	Marburg entry inh: 26.2%	RE007 growth inh: ?	Lassa entry inh: -4.5%

7: Cc1cc(C)c(OCC(=O)Nc2ccccc2N2CCOCC2)c(C)c1
  2A StopGo: -25.6%	NS1 function inh: -19.3%	SARS PLpro yeast: 3.6%	Cruzain Triton: -11.2%	Cruzain inh noDet: -0.7%	Marburg entry inh: 26.7%	RE007 growth inh: 13.6%	Lassa entry inh: -17.0%

Next section
(13) CCc1noc(C)c1C(=O)OCC(=O)Nc1cccc(C)c1
(14) Cc1cc(C)c2c(=O)cc(C(=O)Nc3sc4c(c3C(=O)NCc3ccccc3)CCCC4)oc2c1
(15) CN(C)CC(O)COc1ccc(-c2ccc(C#N)cc2)cc1 (centres undefined)
(16) O=C(/C=C/c1ccc2c(c1)OCCO2)N1CCN(c2ccc(F)cc2)CC1
(17) CC(C)N1C(=O)CCC1C(=O)N1CCN(c2ccc(F)cc2)CC1 (centres undefined)
(18) CCOc1cc(C2c3c(oc4cc(C)c(Cl)cc4c3=O)C(=O)N2Cc2ccco2)ccc1O (centres undefined)
entry no.,13,14,15,16,17,18
2A StopGo,-2.6%,0.0%,/,0.0%,-11.1%,-20.6%
NS1 function inh,/,/,4.2%,-0.3%,-1.1%,9.7%
SARS PLpro yeast,-2.2%,/,-4.6%,-1.5%,0.0%,2.8%
Cruzain Triton,/,-0.1%,-6.7%,/,/,-0.7%
Cruzain inh noDet,/,-10.5%,2.2%,/,/,-9.6%
Marburg entry inh,-12.4%,0.5%[46.1 µM],3.0%,/,/,?
RE007 growth inh,-11.7%,/,/,14.5%,5.4%,-14.0%
Lassa entry inh,-6.7%,0.7%[46.1 µM],/,/,/,2.2%

(19) O=C(Nc1ccc(NC(=O)c2ccco2)nc1)c1cccnc1
(20) Cn1c(=O)c2cnc(-c3ccc(C(F)(F)F)cc3)nc2n(C)c1=O
(21) CC1=C(C(=O)OCc2ccccc2)C(c2ccccc2Br)NC(=O)N1 (centres undefined)
(22) O=C(CCCC(=O)N1CCCc2ccccc21)N1CCCc2ccccc21
(23) CCN(C(=O)CSc1nnc(-c2ccco2)n1Cc1ccccc1)C1CCS(=O)(=O)C1 (centres undefined)
(24) Cc1cccc(-n2ccnc2SCC(=O)Nc2cccc3ccccc23)c1
entry no.,19,20,21,22,23,24
2A StopGo,-7.4%,5.5%,28.2µM*,?,-13.7%,0.0%
NS1 function inh,8.0%,2.2%,11.8%,-2.6%,/,/
SARS PLpro yeast,-14.8%,1.3%,2.5%,1.2%,7.1%,/
Cruzain Triton,-0.7%,/,/,0.0%,/,-6.4%
Cruzain inh noDet,-2.6%,/,/,-5.7%,/,0.5%
Marburg entry inh,?,/,?,?,?,/
RE007 growth inh,4.6%,21.2%,2.5%,-2.6%,2.1%,/
Lassa entry inh,?,/,?,?,11.7%,3.5%[46.1 µM]

(25) O=C1CCCC/C1=C/Nc1ccc(S(=O)(=O)Nc2ncccn2)cc1
(26) COc1nccc(C(F)(F)F)c1C(=O)NC(=O)Nc1c(C)cccc1C
(27) Cc1cc(Cl)ccc1OCCCC(=O)N1CCCCC1
(28) COC(=O)CC1C(=O)NCCN1C(=S)NC(=O)C(c1ccccc1)c1ccccc1 (centres undefined)
(29) O=c1[nH]cnc2sc3c(c12)CCCCC3
(30) CCOc1ccc(C(CC(=O)O)NC(=O)c2ccco2)cc1OC (centres undefined)
entry no.,25,26,27,28,29,30
2A StopGo,8.3%,-24.9%,-12.0%,-0.3%,-2.1%,-22.2%
NS1 function inh,8.7%,-4.7%,-45.6%,4.3%,/,2.9%
SARS PLpro yeast,-0.6%,-0.4%,-12.3%[6.58 µM],5.3%,-5.8%,5.5%
Cruzain Triton,-7.8%,/,-4.5%,2.4%,/,-1.4%
Cruzain inh noDet,-1.8%,/,-4.6%,1.3%,/,1.8%
Marburg entry inh,17.7%,-10.3%,-18.6%[46.1 µM],3.6%,-20.1%[46.1 µM],13.7%
RE007 growth inh,2.5%,1.7%,-17.2%,4.4%,2.7%,14.7%
Lassa entry inh,8.3%,4.7%,8.3%,?,27.4%[46.1 µM],15.9%

(31) COc1cccc(N2CCN(Cc3nnc(-c4ccc5c(c4)OCO5)o3)CC2)c1
(32) CCN1CCc2nc(NC(=O)c3ccccc3)sc2C1
(33) COc1ccc(N2CCN(C(=O)Nc3ccccc3C)CC2)cc1
(34) CC(C)(C)c1ccc(CN2C3=NCCCN3c3ccccc32)cc1
(35) COC(=O)C1=C(C(=O)OC)N2C=CC=CC2(C)C(C(=O)OC)=C1C(=O)OC (centres undefined)
(36) CC(C)C1Oc2ccccc2N(CC(=O)NCCCN2C(C)CCCC2C)C1=O (centres undefined)
entry no.,31,32,33,34,35,36
2A StopGo,-12.8%,-15.8%,-1.1%,?,-9.1%,-11.9%
NS1 function inh,/,3.1%,-1.1%,-0.8%,12.8%,1.1%
SARS PLpro yeast,/,/,-0.3%,-4.3%,-3.4%,?
Cruzain Triton,-1.6%,-1.7%,/,-2.8%,3.5%,-0.7%
Cruzain inh noDet,-4.4%,-6.4%,/,-1.7%,12.0%,9.4%
Marburg entry inh,-10.1%[46.1 µM],-21.8%,/,2.59µM*,-2.1%,-11.4%
RE007 growth inh,/,-6.1%,-3.9%,32.7%,-12.3%,0.7%
Lassa entry inh,2.7%[46.1 µM],2.1%,/,?,-1.0%,5.8%

(37) O=C(Nc1ccc2c(c1)OCO2)c1cc(-c2cccnc2)nc2ccccc12
(38) CCOC(=O)c1cc2c(=O)n3ccccc3nc2n(CC(C)C)c1=NC(=O)c1ccco1
(39) CCOc1ccc(C(=O)OCC(=O)NCCNC(=O)COC(=O)c2ccc(OCC)cc2)cc1
(40) COc1ccnc(CSC(N)=Nc2ccccc2C(F)(F)F)c1
(41) CCOc1cc(C2c3c(-c4ccccc4O)n[nH]c3C(=O)N2Cc2cccnc2)ccc1O (centres undefined)
(42) Cc1cc(C(=O)Nc2ccccc2)nn1C(C)(C)C
(43) Cc1ccc(C(=O)c2cc([N+](=O)[O-])ccc2N2CC(C)OC(C)C2)cc1 (centres undefined)
(44) O=C(Cn1nnc2ccccc21)c1ccc(Cl)cc1
(45) O=C(Nc1cc(Cl)ccc1O)C1CCCO1 (centres undefined)
entry no.,37,38,39,40,41,42,43,44,45
2A StopGo,5.0%,-3.6%,-16.8%,-8.5%,-28.2%,11.9%,15.1%,27.7%,8.7%
NS1 function inh,3.3%,-2.7%,3.9%,-11.1%,/,-37.8%,-0.7%,2.1%,-17.8%
SARS PLpro yeast,-1.8%,5.7%,-0.4%,-2.0%,/,-2.2%,-3.2%,-1.0%,0.3%
Cruzain Triton,/,-2.5%,/,-1.6%,-2.1%,/,-5.3%,/,1.9%
Cruzain inh noDet,/,0.9%,/,-5.6%,3.2%,/,12.4%,/,8.6%
Marburg entry inh,-12.3%[46.1 µM],-22.8%&-22.8%,?,2.0%,24.4%[46.1 µM],6.5%[46.1 µM],/,/,12.1%
RE007 growth inh,2.6%,4.2%,-2.1%,-14.1%,/,-12.5%,-9.4%,-0.6%,0.7%
Lassa entry inh,-8.9%[46.1 µM],0.6%,2.9%,10.3%,-23.1%[46.1 µM],-0.2%,/,/,10.1%
